eIF4H FP inh – inhibitors of RNA binding by human eIF4H; 290,000 tested, 0.94% active; eIF4H fluorescence polarization binding assay; AID 2012; inhibition, % at 35 µM; Q15056;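 active = 50% or more with normal probe brightness, or confirmed in later tests; inconclusive = above 50% with abnormal brightness, or retests that disagree; inactive = below 50% or failed in later tests; about a fifth of its hits are not listed in these tables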;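 note: calls also rest on retests at 20 µM and on dose response follow-up; 0% = protein and probe with vehicle and 100% = probe without protein; strong numbers were not always called active; many hits fall short of the cut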
MT1-MMP act inh – MT1-MMP (human) activation inhibition; AID 651647; P50281; HT1080 RFP-PRO-GFP cells, GFP/RFP ratio fluorescence, overnight; percent of plate control window, DMSO zero; 360,000 tested, 0.061% active; GFP/RFP ratio change, % at 20 µM;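 active = GFP/RFP ratio change of at least 30% with cell ATP level not reduced by more than half and red fluorescence within 50% of control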; note: strong numbers were not always called active
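Read-out: GFP/RFP fluorescence ratio; Test system: RFP-PRO-GFP reporter HT1080 cells; Compound dosing: single-point 20 µM compound, 1% DMSO; Times: overnight compound exposure at 37 °C.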
Rce1 inh – blocks yeast Ras-converting enzyme; yeast membranes, quenched prenylated peptide cleavage fluorescence; AID 2563; calls only; Q03530; 290,000 tested, 0.27% active;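 active = fall in fluorescence gain of 50% or more versus controls, with final raw signal at or below 3038400; inconclusive = same 50% fall but final raw signal above 3038400; inactive = fall in fluorescence gain under 50%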;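 note: plate controls were neutral control wells for no effect and wells lacking membranes for full effect; tested at 10 µM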
Target sequence (Q03530 whole entry, looked up): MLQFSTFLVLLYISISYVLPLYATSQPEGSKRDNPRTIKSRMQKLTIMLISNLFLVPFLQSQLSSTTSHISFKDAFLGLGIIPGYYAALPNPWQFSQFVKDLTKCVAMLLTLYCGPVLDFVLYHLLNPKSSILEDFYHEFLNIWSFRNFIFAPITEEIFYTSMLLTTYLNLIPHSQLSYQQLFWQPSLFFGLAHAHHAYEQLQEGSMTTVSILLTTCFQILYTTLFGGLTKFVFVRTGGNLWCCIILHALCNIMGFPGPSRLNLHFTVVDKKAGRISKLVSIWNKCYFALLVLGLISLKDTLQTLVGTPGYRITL
CSC inhib – cancer stem cell inhibition; inhibition, % at 7.5 µM; 300,000 tested, 1.1% active; cancer stem cell-like cells viability, luminescence;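 active = mean at 75% or more and at least half the replicates too; inconclusive = mean and replicates disagree; tested in HMLE shEcad cells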;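 note: 0% = median of negative and 100% = median of positive control wells; the first replicate is given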
PABP polyA inh – blocks human PABP binding to poly(A) RNA; P11940; fluorescence polarization; inhibition, % at 35 µM; 290,000 tested, 1% active; AID 2014;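 active = 50% or more with normal probe brightness, or confirmed in later tests; inconclusive = above 50% with abnormal brightness, or retests that disagree; inactive = below 50% or failed in later tests; about a fifth of its hits are not listed in these tables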;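 note: calls also rest on retests at 20 µM and on dose response follow-up; controls were probe without protein and protein plus probe with vehicle; some compounds called inactive have numbers as strong as hits; many hits fall short of the cut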
Target sequence (P11940 whole entry, looked up): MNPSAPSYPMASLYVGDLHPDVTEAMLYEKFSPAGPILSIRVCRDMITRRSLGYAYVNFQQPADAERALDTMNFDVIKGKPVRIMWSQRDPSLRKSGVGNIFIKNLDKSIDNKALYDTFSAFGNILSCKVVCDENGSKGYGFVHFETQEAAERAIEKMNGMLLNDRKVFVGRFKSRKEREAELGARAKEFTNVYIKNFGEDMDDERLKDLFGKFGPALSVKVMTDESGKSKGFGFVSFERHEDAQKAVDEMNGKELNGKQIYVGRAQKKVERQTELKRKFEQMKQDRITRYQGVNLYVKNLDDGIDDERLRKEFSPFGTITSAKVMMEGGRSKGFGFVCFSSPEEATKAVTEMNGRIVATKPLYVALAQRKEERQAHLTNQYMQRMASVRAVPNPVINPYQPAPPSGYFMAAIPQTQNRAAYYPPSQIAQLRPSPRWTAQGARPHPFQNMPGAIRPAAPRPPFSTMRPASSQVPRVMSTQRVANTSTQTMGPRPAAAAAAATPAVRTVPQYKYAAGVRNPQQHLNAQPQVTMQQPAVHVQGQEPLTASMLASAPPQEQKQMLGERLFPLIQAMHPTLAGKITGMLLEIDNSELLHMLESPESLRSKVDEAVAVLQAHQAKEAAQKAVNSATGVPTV
HIV Env fusion – HIV envelope-mediated fusion inhibition | inhibition, % at 12.3 µM | 360,000 tested, 1.1% active | AID 651610 | HeLa-JRFL Env/CEM21 cell fusion, luciferase;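 active = mean replicate inhibition score of at least 50 and every replicate individually at or above 50; inconclusive = only one of the two criteria met; inactive = mean below 50 and not all replicates reaching 50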;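 note: 0% = plate neutral controls and 100% = maraviroc near 300 nM; one replicate is shown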
Yeast UUG start – alters start codon recognition fidelity in yeast; S. cerevisiae UUG-firefly luciferase reporter, luminescence/redox ratio; 350,000 tested, 0.13% active; activity score, % at 18.7 µM; AID 602363;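 active = replicate mean at a twofold rise or more, about +100% in these data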;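 note: firefly luciferase made from a UUG start codon reports start codon fidelity; reporter light over untreated wells divided by growth signal over untreated wells; some hits fall short of that in this replicate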
eIF4H FP inh retest – also measured in eIF4H FP inh; calls as there; inhibition, %; compound at 20 µM; confirmation average;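 mean of two retest wells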
PABP polyA inh retest – second read-out of PABP polyA inh, no call of its own (marks repeat the call); inhibition, %; compound at 20 µM; confirmation repeats;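 mean of two retest wells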
MT1-MMP act inh RFP – second read-out of MT1-MMP act inh, no call of its own (marks repeat the call); RFP signal change, %; measured here: RFP expression control read;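 0 = vehicle wells; hits needed this value within 50% of zero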
Numbers without * were called inactive; i = inactive; ? = inconclusive; · = not tested or not shown; & = joins results of further samples; [ ] = another dose, or the depositor's remark.

SMILES | eIF4H FP inh | MT1-MMP act inh | MT1-MMP act inh RFP | Rce1 inh | CSC inhib | PABP polyA inh | HIV Env fusion | Yeast UUG start | others
Cc1cccc(C)c1OCC(=O)NC(Cc1c[nH]c2ccccc12)C(=O)O (stereo not given) | -0.8 | 11.6 | 11.0 | i | 2.4 | -15.3 | -6.3 | ·
CC(C)(C)c1ccc(C2(C)NC(=O)N(CC(=O)NCc3cccs3)C2=O)cc1 (stereo not given) | -2.2 | -0.4 | 4.0 | i | -12.2 | -3.2 | 29.0 | -0.7
Cc1nnc(NC(=O)CCSCCC(=O)Nc2nnc(C)s2)s1 | 90.5 | 4.0 | 7.6 | · | -14.3 | 58.1 | 10.3 | · | eIF4H FP inh retest=-1.7;PABP polyA inh retest=1.4
CCOC(=O)CN=C/C(C(C)=O)=C(/C)O | -8.4 | 2.4 | 3.1 | i | -7.9 | -5.9 | -16.6 | ·
CN(CCCNC(=O)c1ccccc1F)CCCNC(=O)c1ccccc1F | 12.6 | -5.6 | -1.2 | i | -18.0 | 6.1 | -0.9 | -5.3
COc1ccc(OCCNc2cc(N3CCOCC3)ccc2[N+](=O)[O-])cc1 | -1.4 | 9.1 | -0.5 | i | · | 1.9 | · | 2.3
Cc1nn(C(=O)c2nn(C)cc2[N+](=O)[O-])c(C)c1Cl | -6.8 | -1.6 | 2.7 | i | -7.8 | 0.8 | 4.0 | ·
CC(C)C(=O)N1CCN(c2ccc(NC(=O)c3ccco3)cc2Cl)CC1 | -4.2 | -1.2 | -3.3 | · | -3.9 | -5.4 | 6.4 | -5.9
CCN(CC)c1ccc(/C=N/NC(=O)c2ccco2)cc1 | 1.8 | -5.3 | -7.7 | i | 40.3 | -2.0 | -296.5 | -16.8
Cc1ccc(NC(=O)c2noc3c2CCCCC3)cc1C | 6.1 | 5.4 | 6.1 | i | -6.3 | -13.5 | · | -13.3
O=C(COc1ccc(F)cc1)Nc1ccc(-n2cnnn2)cc1 | -4.4 | -1.4 | 8.9 | i | -0.3 | -3.7 | -40.6 | -1.7
Cc1ccc(Cl)c(OCC(=O)Nc2cc(S(=O)(=O)N3CCOCC3)ccc2N2CCCC2)c1 | -9.7 | -1.0 | -1.1 | i | 3.7 | -4.6 | · | -4.2
Cc1ccc2c(c1)-c1c(cnn1CC(=O)N(Cc1ccco1)C1CCCCC1)CO2 | -7.8 | -2.7 | -7.7 | i | 14.2 | -7.5 | -1.3 | 6.9
CC(C)(C)c1cc(N/C=C\c2nnnn2-c2ccc(Br)cc2)no1 | -4.2 | -0.4 | 0.1 | i | 3.9 | -4.8 | ? | -3.4
c1ccc2c(c1)SCc1nnc(-c3ccncc3)n1-2 | -1.9 | 4.1 | 3.2 | i | -18.8 | 18.2 | 7.5 | ·
COCCN(C(=O)CSc1nnc(-c2ccc(C(C)(C)C)cc2)n1N)c1c(N)n(CC(C)C)c(=O)[nH]c1=O | · | 3.4 | 0.3 | i | 0.5 | · | -28.3 | ·
COC(=O)c1ccc(Cn2nnc3c(=O)[nH]c(C4CCN(S(=O)(=O)c5ccc(F)cc5)CC4)nc32)cc1 | 1.6 | 2.5 | -0.6 | i | -10.4 | 4.3 | -7.2 | 5.8
CCOC(=O)C1(C)CCCCN1C(=O)c1cccnc1 (stereo not given) | · | 1.1 | 2.4 | · | · | · | -1.5 | -3.7
CCOc1ccc(NC(=O)C2CCCN(S(=O)(=O)c3ccc(-n4cnnn4)cc3)C2)cc1 (stereo not given) | -3.6 | 1.7 | 2.1 | i | -11.0 | -4.7 | 4.6 | -4.8
C[C@H]1CN([C@@H](C)CO)C(=O)Cc2cc(NC(=O)CCC(F)(F)F)ccc2O[C@H]1CN(C)CC1CC1 | · | -4.7 | -2.4 | · | · | · | -14.6[16.7 µM] | -1.3&-11.1
CCC(=O)Nc1ccc(S(=O)(=O)Nc2c(NC)c3ccccc3oc2=O)cc1 | -2.5 | 3.4 | -1.1 | i | -11.4 | 0.6 | 2.1 | -2.9
O=C(NCc1ccc2c(c1)OCO2)c1cc([N+](=O)[O-])ccc1N1CCCCC1 | 5.2 | -1.3 | -11.3 | i | 54.5 | 5.6 | ? | ·
COc1cccc(C2[C@H](C)C3(CCN2C)OCCO3)c1 (stereo not given in full) | -3.1 | 8.4 | 9.9 | i | -2.3 | -7.7 | · | ·
O=C(COC(=O)c1cccc(OC(F)F)c1)NC(=O)NC1CCCCC1 | · | -4.7 | -2.4 | i | 2.4 | · | 4.7 | ·
COc1ccc(Cc2[nH]n3c(=O)cc(C(C)C)nc3c2-c2ccccc2)cc1 | 8.2 | -7.5 | -14.9 | i | -19.2 | -5.9 | 26.9 | ·
Next part
SMILES | eIF4H FP inh | MT1-MMP act inh | MT1-MMP act inh RFP | Rce1 inh | CSC inhib | PABP polyA inh | HIV Env fusion | Yeast UUG start | others
Cc1ccc2c(c1)N=C(c1ccc(Cl)cc1)CO2 | 1.6 | 4.7 | -0.6 | i | 6.8 | 3.1 | · | -18.6
Cc1ccc(S(=O)(=O)N2CCN(C(=O)CSc3ncn[nH]3)CC2)c(C)c1 | · | 6.6 | -9.4 | i | -8.3 | · | -1.3 | ·
O=C(O)Cc1csc(-c2ccc(F)cc2)n1 | -6.4 | 2.0 | 2.9 | i | -12.1 | -1.3 | -0.4 | -14.1
CCN(CC)CCNC(=O)Cc1c(C(=O)O)n(C)c2ccccc12 | 14.2 | -3.1 | -4.1 | i | -1.8 | 7.5 | · | -27.8
CN(CC(=O)Nc1cccc(F)c1)C(=O)C1CCC(C(=O)N(C)CC(=O)Nc2cccc(F)c2)CC1 (stereo not given) | · | 4.6 | -4.6 | · | · | · | -8.8 | 7.6
CC(=O)NC(c1cccc(F)c1)c1nc(-c2cccc(C(F)(F)F)c2)cs1 (stereo not given) | · | 2.4 | -0.5 | · | · | · | 24.2 | -14.8
Cc1ccc(S(=O)(=O)CCC(=O)Nc2nnc(-c3ccccc3S(C)(=O)=O)o2)cc1 | · | 0.9 | 5.9 | i | -3.8 | · | -12.0 | ·
Nc1cccc(C(=O)Nc2ccccc2Cl)c1 | -11.8 | 5.1 | 0.1 | i | -2.6 | 5.8 | -93.6 | -11.1
CCn1c(C)nc2cc(C(=O)N/N=C(\C)c3ccc(OC)cc3O)ccc21 | 7.8 | 3.8 | -0.5 | i | · | -3.7 | 28.2 | ·
Cc1nc2sc(C(c3cccc(F)c3)N3CCC(C)CC3)c(O)n2n1 (stereo not given) | 13.9 | 0.0 | -4.2 | i | -6.8 | 8.9 | -13.1 | -7.9
COc1ccc(Cl)cc1-c1n[nH]c(=S)n1Cc1ccccc1 | -14.4 | -4.5 | -6.5 | i | -8.4 | 27.7 | -3.6 | -20.8
O=C(CSc1ccccc1F)NC1CCS(=O)(=O)C1 (stereo not given) | -9.2 | 2.3 | 3.2 | i | -7.5 | 17.1 | -1.0 | -17.0
CCOC(=O)c1ccc(N=Cc2nc3ccccc3n2C)cc1 | 3.7 | 3.3 | 3.6 | i | -9.4 | -7.8 | · | -18.6
O/N=C(\c1ccccc1)c1nccc2ccccc12 | -4.0 | 2.1 | 0.8 | i | -10.2 | 2.1 | 3.0 | -13.3
CC1CN(CCCOc2ccccc2-c2ccccc2)CC(C)O1 (stereo not given) | 4.1 | 2.9 | 0.5 | i | -1.6 | 5.9 | 11.8 | ·
Cc1ccc(-c2noc(CSc3nnnn3C3CCCCC3)n2)cc1 | -6.1 | 0.6 | -6.1 | i | 5.3 | 3.1 | 1.7 | 2.2
Nc1nc(SCc2ccc(F)cc2)n[nH]1 | 1.5 | -2.2 | -0.8 | i | -8.3 | -2.1 | 4.3 | -13.0
Cn1c(N)c(C(=O)COC(=O)c2ccc(Cl)c(S(=O)(=O)N3CCCCC3)c2)c(=O)n(C)c1=O | -8.9 | 9.6 | -3.0 | i | 1.0 | -4.7 | · | -12.5
O=C(Nc1ccc(F)cc1)C1CCCN(C2=NS(=O)(=O)c3ccccc32)C1 (stereo not given) | · | -1.1 | 3.1 | · | -21.6 | · | -11.7 | 0.3
CCOC(=O)CCc1c(C)c(C#N)c2nc3ccccc3n2c1-n1cnc2ccccc21 | -2.0 | 2.2 | 1.9 | i | -17.0 | -19.2 | -7.1 | -12.4
CCOc1cc(Br)cc(/C=N/NC(=O)c2cccnc2)c1O | 7.5 | -8.2 | -5.3 | · | 17.1 | -4.6 | 11.9 | -21.6
CN1CCc2c(sc(NC(=O)c3ccc(S(=O)(=O)N4CCCC4)cc3)c2C(N)=O)C1 | -8.4 | -48.2 | -1.1 | i | 2.2 | -8.1 | 2.0 | -11.2
O=C(NCCCN1CCCC1=O)C1CCN(S(=O)(=O)N2CCOCC2)CC1 | 6.2 | 3.6 | 3.9 | i | · | 8.8 | · | -12.3
COC(=O)c1c(C(=O)OC)c(-c2ccc(C)cc2)n2c1CS(=O)(=O)C2 | -2.0 | 2.8 | 3.7 | i | 2.5 | 1.1 | · | -8.4
CNC(=S)NNC(=O)Cn1ccc(C)n1 | -14.2 | 6.8 | -1.2 | i | -4.9 | -4.8 | -7.6 | -15.2
(list continues)
SMILES | eIF4H FP inh | MT1-MMP act inh | MT1-MMP act inh RFP | Rce1 inh | CSC inhib | PABP polyA inh | HIV Env fusion | Yeast UUG start | others
Cc1ccc2c(c1)N(CC(=O)NCc1cccs1)C(=O)CO2 | -11.1 | 0.4 | -2.4 | i | -6.6 | -1.1 | -18.3 | 0.3
CN[C@@H](C)C(=O)NC[C@H]1O[C@@H](n2cnc3c(N)ncnc32)[C@H](O)[C@@H]1O | · | 2.2 | 5.1 | · | · | · | -15.4 | -10.1
C(=N\Nc1ccccn1)/c1cccnc1 | 6.1 | -5.2 | -3.1 | i | -13.1 | -3.3 | -5.5 | -17.3
CC(/C=N/NC(=O)Cn1cnc2c1c(=O)n(C)c(=O)n2C)=C\c1ccco1 | 9.6 | 0.8 | 3.3 | i | 2.7 | 12.1 | 3.1 | 6.7
O=C(Nc1ccccc1Cl)N1CCn2c(nc3ccccc32)C1 | -7.1 | 4.2 | 3.2 | i | -8.6 | -4.4 | -86.9 | -18.2
COC(=O)c1cn(NC(=O)C2CCCO2)c(=O)c2ccccc12 (stereo not given) | 1.0 | -3.3 | -0.4 | i | · | -3.2 | -48.7 | -19.1
Cc1ccc(NC2CCCN(C(=O)c3cc4ncccn4n3)C2)cc1C (stereo not given) | -3.2 | 1.7 | 3.0 | i | -11.1 | -0.4 | -4.4 | -17.8
COc1cccc(CNc2nc3cc(-c4cccc(Cl)c4)sc3c(=O)n2C)c1OC | · | -4.3 | -26.5 | · | · | · | 13.7 | -16.4
Cc1cc(C)cc(NC(=O)C2CCCC2)c1 | -5.0 | 1.9 | 0.5 | i | -11.0 | 9.9 | -5.9 | -1.5
C=CCNc1nnc(SC2CC(=O)N(c3ccc(OCCC)cc3)C2=O)s1 (stereo not given) | -2.5 | 3.5 | 4.6 | i | -1.7 | 7.6 | · | -11.3
O=C(CCCSc1nc2ccccc2[nH]1)NCc1ccco1 | -9.3 | 2.0 | -0.4 | i | -1.9 | -8.4 | 31.8 | -9.2
CSc1ccc(C2C(C#N)=C(N)Oc3c2ccc(=O)c2c(C)oc(C)c32)cc1 (stereo not given) | 52.4* | -80.0 | 19.8 | i | 8.7 | 71.3* | · | -2.1
Nc1nc2ccccc2n1S(=O)(=O)c1ccccc1 | · | 3.3 | -0.6 | · | · | · | 19.0 | -10.4

Screening data deposited in PubChem BioAssay by several laboratories.
